# Screening data as filed in PubChem BioAssay.
# Cruzain inh Det = blocks cruzain activity in presence of Triton detergent; purified cruzain, Z-FR-AMC fluorescence, 0.01% Triton; 200,000 compounds, 0.43% hits; P25779; Potency, µM, for inactives: max response, negative = inhibition, usual class: inhibitors; AID 1478;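 also: plate controls were neutral wells for no effect and buffer without enzyme for full effect; nearly all actives have a fitted effect of over 40% in size; top concentration of the series not given in the record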
# Target sequence (P25779 123-467 limits assumed): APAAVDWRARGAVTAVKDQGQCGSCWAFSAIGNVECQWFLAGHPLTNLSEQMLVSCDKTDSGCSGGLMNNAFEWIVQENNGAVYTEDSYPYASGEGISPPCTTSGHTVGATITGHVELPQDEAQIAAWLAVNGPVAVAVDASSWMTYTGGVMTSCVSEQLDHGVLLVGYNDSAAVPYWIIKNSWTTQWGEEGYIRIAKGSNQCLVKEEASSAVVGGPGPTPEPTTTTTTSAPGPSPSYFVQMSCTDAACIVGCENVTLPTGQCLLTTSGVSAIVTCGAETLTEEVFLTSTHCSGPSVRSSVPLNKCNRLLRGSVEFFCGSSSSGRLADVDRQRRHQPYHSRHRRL
#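 Detergent-containing run (0.01% Triton X-100) in acetate buffer pH 5.5 with 5 mM DTT: enzyme at 1.5 nM final, 15 min compound preincubation at room temperature, then 2 uM Z-FR-AMC substrate. Activity taken as 60 s fluorescence increase at 360/450 nm.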
# Cruzain inh noDet = cruzain (T. cruzi) inhibition without detergent; P25779; purified cruzain, Z-FR-AMC fluorescence, no detergent; Potency, µM, without a hit: max response, negative = inhibition, actives largely listed as inhibitors; 200,000 compounds, 2.3% hits;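 also: plate controls were enzyme without inhibitor for no effect and buffer without enzyme for full effect; nearly all actives have a fitted effect of over 40% in size; top concentration of the series not given in the record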
#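 Detergent-free condition (0.00005% Triton X-100) in acetate buffer pH 5.5 with DTT. 1.5 nM enzyme and compound were pre-mixed 15 min, then 2 uM Z-FR-AMC substrate added; reaction progress from fluorescence change between first and third reads (60 s).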
# RE007 growth inh = less growth of the S. pombe RE007 Vpr strain. S. pombe RE007 Vpr strain, BacTiter-Glo ATP luminescence, 24 h; control for the full effect not named in the record. Potency, µM (series often up to 92.2 µM), for inactives: top-dose activity change, negative = less growth. 360,000 compounds, 0.21% hits. AID 651644; active = well fitted falling curve with a large enough effect; inconclusive = small, poorly fitted or top-dose-only effect; inactive = no such curve, though single readings can be large or run the other way;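 also: % is scaled to controls: 0 for no effect and ±100 for the full control effect; nearly all actives have a fitted effect of over 50% in size; the assay follows cell death caused by Vpr and the record does not say whether a fall means rescue or toxicity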
#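 Fission yeast strain RE007, carrying one chromosomally integrated HIV-1 vpr copy, was seeded at OD 0.01 in PMG+AL medium with 23 nL pinned compound. After 24 h at 30 °C and 99% humidity, viability was read by BacTiter-Glo luminescence.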
# MARV entry inh = inhibitors of Marburg virus binding or cell entry; Marburg virus pseudotyped entry inhibition, cell reporter; control for the full effect not named in the record; about a third of the inactives were read at about 46 µM; Potency, µM (top dose mostly 37.8 µM), inactives show at the top dose activity change, negative = inhibition, hits mostly inhibitors; 300,000 compounds, 1.8% hits; active = well fitted inhibition curve with a large enough effect; inconclusive = small, poorly fitted or top-dose-only effect, or effect the other way; inactive = flat fitted curve, though single readings scatter; tested in HEK293 cells; about a fifth of its hits are not listed in these tables; also: % is scaled to controls: 0 for no effect and ±100 for the full control effect; luciferase read-out
# NS1 inh = influenza NS1 inhibition. S. cerevisiae slowed by influenza A NS1, growth recovery by OD600. Potency, µM (top dose mostly 46.1 µM), for the others: at the top dose activity, positive = more growth. 270,000 compounds, 0.4% hits. AID 2326; active means well fitted rising curve with a large enough effect; inconclusive means small, poorly fitted or top-dose-only effect; inactive means no such curve, though single readings can be large or run the other way; also: nearly all actives have a fitted effect of over 50% in size
#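 A cell-based growth assay was used: compounds that relieve NS1-induced slow growth of budding yeast raise OD600. Assay medium was yeast nitrogen base with ammonium sulphate and -URA supplement, pH 6.0, with 2% galactose.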
# Lassa entry inh = inhibitors of Lassa virus binding or cell entry. Lassa virus pseudotype entry inhibition, cell reporter; control for the full effect not named in the record. Potency, µM (titrated, usually from 37.9 µM), inactives show top-dose activity change, negative = inhibition, actives largely listed as inhibitors. 300,000 compounds, 1.2% hits; active means well fitted inhibition curve with a large enough effect; inconclusive means small, poorly fitted or top-dose-only effect, or effect the other way; inactive means flat fitted curve, though single readings scatter; tested in HEK293 cells; also: % is scaled to controls: 0 for no effect and ±100 for the full control effect; nearly all actives have a fitted effect of over 50% in size; luciferase read-out
# SARS PLP yeast = inhibitors of SARS-CoV papain-like protease in yeast; S. cerevisiae expressing SARS-CoV PLpro, growth rescue; control for the full effect not named in the record; Potency, µM (titrated, usually from 32.9 µM), inactives show top-dose activity, positive = growth rescue; 330,000 compounds, 0.19% hits; active means well fitted rising curve with a large enough effect; inconclusive means small, poorly fitted or top-dose-only effect; inactive means no such curve, though single readings can be large or run the other way; also: 0% is about no effect; nearly all actives have a fitted effect of over 55% in size; growth read by luminescence after 48 h
# 2A StopGo = lowers the luciferase signal of an FMDV 2A StopGo reporter; 410,000 compounds, 1.2% hits; AID 1159524; human cells with a luciferase reporter of 2A StopGo recoding; control for the full effect not named in the record; Potency, µM (top dose mostly 57.9 µM), inactives show at the highest dose signal change, negative = less light; active = well fitted falling curve with a large enough effect; inconclusive = small, poorly fitted or top-dose-only effect; inactive = no such curve, though single readings can be large or run the other way; tested in HEK293T cells; also: % is scaled to controls: 0 for no effect and ±100 for the full control effect; nearly all actives have a fitted effect of over 45% in size; luciferase light after 4 h
# Numbers without * were called inactive; ? = inconclusive; . = not tested or not shown; [ ] = another dose, or the depositor's remark. Unless noted, calls follow the shape of the dose curve; as a rule, active = well fitted curve in the direction sought with a large enough effect; inconclusive = small, poorly fitted or top-dose-only effect, or another doubt; inactive = no such curve, though single readings can be large; an effect the other way counts as inactive or inconclusive. Potency is read from the fitted curve at half-maximal effect.
SMILES,Cruzain inh Det,Cruzain inh noDet,RE007 growth inh,MARV entry inh,NS1 inh,Lassa entry inh,SARS PLP yeast,2A StopGo
CCOc1ccccc1CN1CCN(S(=O)(=O)c2ccccc2)CC1,1.1%,10%,.,.,.,?,.,-17%
CCN(CC)C(=S)NC(=O)c1ccc(OC)c(Br)c1,-4.4%,-6%,2%,19%,-21%,?,5%,4%
Oc1ccc(C2=NN(c3ccccc3)C(c3ccc(F)cc3)C2)cc1 (centres undefined),.,.,40µM*,?,-60%,11µM*,-12%,?
COc1ccc(-n2nnnc2SCC(=O)Nc2cccc(C)n2)cc1OC,-0.2%,-2%,8%,-23%,-12%,1%,2%,.
CCOC(=O)c1cc(OC(=O)c2cc(Cl)ccc2OC)n(-c2ccccc2)n1,-6.2%,-5%,.,1%[46.1 µM],.,-1%[46.1 µM],.,-17%
C/C(=N/OC(=O)c1ccc(F)cc1)c1ccc(C)cc1,0.6%,-7%,12%,19%,-19%,-9%,1%,46%[activator]
COc1cc(NC(=S)NCCC(c2ccccc2)c2ccccc2)cc(OC)c1,-10%,32µM*,10%,?,8%,?,?,-5%
Cc1cc(N/N=C/c2ccc(N(C)C)cc2)c2ccccc2n1,.,.,3%,.,-79%,.,-6%,0%
CCN(CC(=O)Nc1ccccc1OC)Cc1csc(CC(=O)Nc2ccc(C)cc2)n1,.,.,-5%,?,.,-9%[46.1 µM],-6%,-22%
COc1ccc(OCCCn2cccc2/C=C2/C(=N)N3OC(C)=CC3=NC2=O)cc1,.,.,1%,0%,.,?,-13%,-7%
CCOc1ccc(-c2cc(C(=O)N3CCCC3)c3ccccc3n2)cc1,.,.,-25%,?,9%,5%,-5%,27%
Cc1cc(N2CCN(C(=O)Nc3ccc(F)cc3F)CC2)c2ccccc2n1,.,.,-3%,-17%,7%,?,1%,-23%
CCOC(=O)c1ccc(NCCc2ccc(OC)c(OC)c2)c(N)c1,.,.,24%,5%,-20%,?,2%,0%
COC(=O)c1ccn(-c2nc(-c3ccco3)cc(C(F)(F)F)n2)n1,-0.4%,11%,3%,22%,-48%,19%,10%,?
COCCN1C(=O)c2ccc(C(=O)NCc3cccnc3)cc2C1=O,1.8%,-2%,-2%,7%,5%,28%,0%,.
COc1ncnc2c1oc1ccccc12,.,.,1%,.,-3%,.,-1%,54%[activator]
O=C(C1CCN(CCCc2ccccc2)CC1)N1CCCCC1,1.5%,2%,-20%,-3%,-3%,-7%,12%,-5%
O=C(O)c1cc(-c2ccccc2)n[nH]1,0.8%,1%,.,.,9%,.,18%,18%
Cc1nc2ccccc2c2oc(C(=O)N3CCN(C(=O)c4ccco4)CC3)cc12,1.2%,4%,-8%,-1%,-42%,.,2%,-24%
O=c1[nH]c2ccc(NC(=S)NC3CCCCC3)cc2[nH]1,.,.,-20%,1%[46.1 µM],.,11%,-7%,0%
CCN(CC)CCN1Cc2ccccc2C1=N,-0.7%,-1%,1%,-22%,6%,-8%,-2%,-17%
CCN(CC)c1ccc(C=C2C(=O)OC3(CCCCC3)OC2=O)cc1,.,.,4%,0%[46.1 µM],.,8%[46.1 µM],-4%,-6%
CC(C)Cn1c(=O)c2c(c3ccccc31)OC(C)C(=O)N2 (centres undefined),-0.3%,13%,31%,2%,-10%,-4%,3%,-14%
COC(=O)c1ccc(CN2CCN(CCC(C)C)C(CCO)C2)cc1 (centres undefined),.,.,4%,.,-3%,.,-1%,2%
CC1=CC(C)(C)[N+](C)(C)c2ccccc21,.,.,0%,.,-1%,.,1%,-19%
C=C1CC2(CC(c3ccccc3)OC(c3ccccc3)C2)OC1=O (centres undefined),.,.,-12%,?,.,?,.,22µM*
COc1ccc(C(=O)NCC(=O)OCC(=O)NC(=O)NC2CCCCC2)cc1OC,-3.8%,-7%,-6%,11%,-6%,17%,?,-12%
O=C(CS(=O)(=O)c1ccc(Br)cc1)N1CCOCC1,.,.,-3%,.,8%,.,3%,9%
CNc1ccc(S(=O)(=O)NC)cc1[N+](=O)[O-],.,.,15%,5%,-2%,8%,6%,-10%
Cc1ccc(-c2csc3nc[nH]c(=O)c23)c(C)c1,.,.,21%,1%[46.1 µM],2%,-15%[46.1 µM],-4%,1%
Nc1c(C(=O)N/N=C/c2cccnc2)oc2nc(-c3ccco3)cc(-c3ccco3)c12,.,.,-2%,?,4%,?,0%,-6%
CN(C)C(=O)c1ccc(NC(=O)Cn2nc(-c3ccccc3)c3ccccc3c2=O)cc1,-1.5%,0%,.,-8%[46.1 µM],.,24%[46.1 µM],.,-14%
COc1ccc2c(c1)cc1c(=O)n(CC(=O)NCCc3ccccc3)nc(C)n12,0.2%,10%,.,6%[46.1 µM],.,.,.,-27%
COc1cnc(-c2ccccn2)nc1Oc1ccc(Cl)c2ccccc12,-3.0%,?,19%,?,-69%,?,-14%,3.2µM*
CCn1c2ccccc2c2cc(NC(=O)c3ccc(C)c([N+](=O)[O-])c3)ccc21,-2.7%,25µM*,1%,-19%,?,?,2%,-14%
CC(C)OC(=O)c1c(NC(=O)CCn2nnc3ccccc32)sc2c1CCCC2,-9.9%,-11%,-1%,-2%,-34%,14%,?,-3%
COc1ccc(NC(=S)N2CCN(S(=O)(=O)c3ccc(OC)cc3)CC2)cc1,.,.,18%,23%[46.1 µM],11%,-29%[46.1 µM],-4%,7%
CC(=O)NC1(C(F)(F)F)NC(=O)N(CC(C)C)C1=O (centres undefined),-2.2%,0%,29%,?,0%,-12%,1%,-8%
COc1ccc(/C=N/OCC(=O)Nn2c(C)nc3ccccc3c2=O)cc1,-3.1%,12%,-25%,3%,8%,12%,-15%,-10%
CC1CCN(c2cc(N3CCC(C)CC3)c([N+](=O)[O-])cc2/C=C(\C#N)c2nn(-c3ccccc3)c(N)c2C#N)CC1,-0.2%,2µM*,6%,?,14%,-4%,3%,21%
O=C(/C=C/c1c(Cl)cccc1Cl)n1cccn1,-6.7%,-6%,-26%,-9%,-26%,-26%,-41%,-19%
Cn1c(SCC(=O)N/N=C/C=C\c2ccccc2[N+](=O)[O-])nc2ccccc21,-2.7%,?,9%,-22%[46.1 µM],11%,-23%[46.1 µM],13%,-6%
O=c1[nH]c(-[n+]2ccc3ccccc3c2)c(/C=N/N=C(\[O-])c2ccccc2)s1,.,.,-5%,.,-2%,.,-2%,0%
O=CN(Cc1ccco1)C1(C(=O)NC2CCCCC2)CCCCC1,1.9%,2%,10%,-42%,8%,3%,6%,0%
CC(=O)c1cccc(NC(=S)NCc2ccccc2)c1,.,.,-15%,-1%,15%,1%,-1%,90%[activator]
Cc1ccc(-n2nc3c(Cl)nnc(C)c3c2C)cc1,-5.8%,8%,-14%,-2%,1%,-2%,-5%,-19%
OC(COCC1CC=CCC1)Cn1cnc2ccccc21 (centres undefined),2.5%,6%,3%,?,-19%,1%,3%,?
COc1cccc(Cn2nnc(C(=O)NCc3ccccc3Cl)c2N)c1,-2.5%,-21%,2%,-9%,-52%,.,4%,-8%
OC(COc1ccccc1)CN1CCN(c2ccccc2)CC1 (centres undefined),.,.,4%,10%,.,10%,.,-1%
CCS(=O)(=O)NCc1csc(-c2ccccc2)n1,-2.4%,-8%,13%,.,-14%,.,-5%,12%

# Going on with the list.
SMILES,Cruzain inh Det,Cruzain inh noDet,RE007 growth inh,MARV entry inh,NS1 inh,Lassa entry inh,SARS PLP yeast,2A StopGo
CC(C)(C)Nc1nc2ccc([N+](=O)[O-])cc2o1,.,.,-9%,3%[46.1 µM],-5%,15%[46.1 µM],2%,10%
O=C(CSc1ncccn1)Nc1ccccc1,3.5%,5%,-3%,4%,9%,7%,0%,38%[activator]
CC1CN(C/C(=N\O)C23CC4CC(CC(C4)C2)C3)CC(C)O1 (centres undefined),.,.,-12%,9%,-2%,-12%,1%,-11%
CC#CCN1c2ccccc2[C@]23C[C@@H](C(=O)OC)N(C(=O)OCC)C2=NC(C(=O)OC)=C(C(=O)OC)[C@H]13,.,.,1%,.,-10%,.,0%,-27%
C=CCN1C(=O)C(=O)N(Cc2nc3ccccc3s2)C1=O,.,.,8%,0%[46.1 µM],5%,4%[46.1 µM],-1%,53%[activator]
CCn1cc(C(=O)N2CCCC2)c(=O)c2cc(S(=O)(=O)N3CC(C)CC(C)C3)ccc21 (centres undefined),.,.,-3%,22%[46.1 µM],8%,14%[46.1 µM],2%,-8%
Cc1onc(-c2ccccc2)c1C(=O)Nc1nnc(C(C)C)s1,.,.,1%,.,12%,.,16%,0%
CCN(CC)S(=O)(=O)c1cccc(C(=O)N/N=C/c2ccccc2OCC(=O)O)c1,.,.,-9%,22%[46.1 µM],.,-5%[46.1 µM],0%,-15%
S=c1[nH]nc(CCc2ccccc2)n1-c1ccc(Cl)cc1,.,.,9%,-1%[46.1 µM],16%,?,0%,-14%
O=C(Cc1cccs1)N1CCN(C(=O)C2CCCO2)CC1 (centres undefined),3.8%,-2%,-21%,1%,3%,6%,12%,-2%
CC(=O)c1c(Nc2ccccc2)sc(C(=O)c2ccccc2)c1C,-6.3%,5%,17%,?,9%,-8%,?,-27%
CC(C)CC(=O)Nc1nnc(S(=O)(=O)N(C)Cc2ccco2)s1,.,.,-6%,.,-5%,.,1%,14%
Cc1ccc2c(c1)NCC(C(=O)NC1CCCCC1)O2 (centres undefined),2.5%,-7%,-12%,15%,7.9µM*,-21%[14.3 µM],-2%,13%
CCCCCCCN=CC1=C(O)CC(c2ccccc2)CC1=O (centres undefined),-1.9%,-3%,-11%,2%,2%,-7%,7%,-7%
O=C(CNS(=O)(=O)c1ccc(F)c(Cl)c1)NCCc1ccccc1,.,.,3%,.,7%,.,1%,-6%

# A second format for two compounds above.
# Results follow in this order: Cruzain inh Det, Cruzain inh noDet, RE007 growth inh, MARV entry inh, NS1 inh, Lassa entry inh, SARS PLP yeast, 2A StopGo
CC(C)CC(=O)Nc1nnc(S(=O)(=O)N(C)Cc2ccco2)s1
 : ., ., -6%, ., -5%, ., 1%, 14%
O=C(CNS(=O)(=O)c1ccc(F)c(Cl)c1)NCCc1ccccc1
 : ., ., 3%, ., 7%, ., 1%, -6%
